From PubChem BioAssay
T cruzi inh = T. cruzi replication inhibition; T. cruzi beta-gal in NIH3T3, luminescence, 90 h; inhibition, % (concentration not given with the values); 1.4% of 300,000 active;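 active = mean inhibition across valid replicates above about 55%, limit read from the data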;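 also: signal also drops with host cell toxicity which is not excluded here; 0% = plate median of DMSO wells and 100% = zero luminescence signal; higher percent means less beta-gal luminescence so fewer parasites; stock transfer was 50 nL into about 50 µL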
ALR inh = blocks human ALR sulfhydryl oxidase activity; inhibition, % (concentration not given with the values); purified ALR, DTT oxidation, H2O2 HRP-luminol luminescence; P55789; 3.8% of 290,000 active;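 active = mean and each replicate at 75% or more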;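 also: stock transfer was 7.5 nL into about 7.5 µL; 0% = neutral wells and 100% = wells with inactivated enzyme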
Target sequence (P55789 whole entry, looked up): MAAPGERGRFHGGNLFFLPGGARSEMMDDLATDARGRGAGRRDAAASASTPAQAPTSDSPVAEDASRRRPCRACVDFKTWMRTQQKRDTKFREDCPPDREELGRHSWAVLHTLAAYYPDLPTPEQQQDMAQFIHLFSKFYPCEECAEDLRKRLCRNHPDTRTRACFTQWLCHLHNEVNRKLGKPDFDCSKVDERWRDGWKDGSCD
rRNA inh HTS = inhibits bacterial ribosomal RNA function over humanized ribosomes; E. coli WT GFP vs humanized-ribosome RFP mutants, fluorescence, 24 h; active compounds read low; DMSO median 0, no signal -100; GFP signal change (wild-type ribosome), % (test concentration not listed); 1.6% of 350,000 active;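 active = significant combined selectivity score with lowered wild-type GFP, culture density cut under 30%, mutant RFP and density less affected; inactive = any of these conditions unmet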; also: one replicate is shown; some compounds called inactive have numbers as strong as hits
Beta apoptosis = beta cell apoptosis inhibition | protection from apoptosis, % (no concentration beside the values) | 0.8% of 300,000 active | INS-1E cytokine-induced death, ATP luminescence, 48 h; percent of positive-control rescue, neutral wells zero;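 active = all replicates at 75% or more, or half of them and the mean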;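 also: 0% = cytokine-treated negative control wells and 100% = positive control rescue; higher means more ATP so stronger rescue from cytokine killing; wells of about 40 µL received 100 nL stock; the first replicate is given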
LANA-H2A inh = blocks KSHV LANA binding to histone H2A/H2B. Q9QR71. cell-free LANA-H2A/H2B peptide, fluorescence polarization. inhibition, % (no concentration beside the values). 0.6% of 320,000 active; in the data active = inhibition mostly above about 10%, no sharp cut-off; inactive = mostly below about 6.7%;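 also: stock transfer was 7.5 nL into about 10 µL; 0% = median of vehicle wells and 100% = median of positive control wells; one replicate is shown; the record names a cut of 25% in any replicate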
Beta2AR agonist = activates human beta-2 adrenergic receptor causing internalization | response, % (no concentration beside the values) | P07550 | Am2.2-beta2AR cells, FAP receptor internalization, flow cytometry; reference of the scale not given here | 0.43% of 340,000 active;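 active = response above a set limit, near 3 SD of response in nonfluorescent compounds, cut at about 42% in these data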;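 also: stock transfer was 100 nL into about 11 µL; a reference agonist was the positive control; negative values mostly stem from fluorescent compounds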
Target sequence (P07550 whole entry, looked up): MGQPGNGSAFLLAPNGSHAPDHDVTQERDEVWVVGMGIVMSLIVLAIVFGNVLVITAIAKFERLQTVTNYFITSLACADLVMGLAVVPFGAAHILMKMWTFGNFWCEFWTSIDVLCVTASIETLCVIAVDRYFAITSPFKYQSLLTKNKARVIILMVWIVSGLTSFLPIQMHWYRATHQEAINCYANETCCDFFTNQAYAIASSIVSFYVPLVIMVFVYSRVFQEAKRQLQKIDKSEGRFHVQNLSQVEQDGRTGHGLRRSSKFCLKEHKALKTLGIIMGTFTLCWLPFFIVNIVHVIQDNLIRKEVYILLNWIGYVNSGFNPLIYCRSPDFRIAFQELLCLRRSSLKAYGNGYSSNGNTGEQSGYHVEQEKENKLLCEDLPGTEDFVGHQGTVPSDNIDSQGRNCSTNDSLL
Calb FLC = C. albicans growth modulation with fluconazole. growth inhibition, % (no concentration beside the values). C. albicans CaCi-2 (fluconazole-resistant clinical isolate) + fluconazole, Alamar Blue growth, 48 h. 0.57% of 300,000 active;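 active = most replicates above 75%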;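 also: all wells also contain fluconazole at 8 µg/ml as a sub-toxic cotreatment; 0% = median of DMSO wells and 100% = median of geldanamycin control wells; wells of about 8 µL received 7.5 nL stock; the first replicate is given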
Bfl-1 A1 inh = inhibitors of the anti-apoptotic protein A1, read as caspase activation. MEF A1-2A-BIM cells, Caspase-Glo 3/7 luminescence, 3 h; percent of clofoctol response, vehicle zero. caspase activation, % (no concentration beside the values). 0.066% of 330,000 active. AID 2462;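 active = over half of replicate activation scores above 10%, or exactly half above 10 with the replicate mean above 10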;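 also: wells of about 30 µL received 50 nL stock; many hits fall short of the cut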
rRNA inh HTS OD600 = second read-out of rRNA inh HTS, no call of its own (marks repeat the call); OD600 change, %; measured here: OD600 growth;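 optical density of the mix in the first replicate; 0 = DMSO median and -100 = no signal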
rRNA inh HTS RFP = also measured in rRNA inh HTS; calls as there; RFP signal change, %; measured here: RFP humanized mutant strains;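 first replicate; 0 = DMSO median and -100 = no signal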
Starred values were filed as active, the others as inactive; / = no result given.

The line under a structure holds: T cruzi inh	rRNA inh HTS OD600	Bfl-1 A1 inh	Calb FLC	Beta2AR agonist	rRNA inh HTS RFP	LANA-H2A inh	ALR inh	Beta apoptosis	rRNA inh HTS
COc1ccc(CNc2ncc(-c3ccccc3)n2C)cc1
→ 2	27	0.5	-7	-2	4.2	-0.9	42	0	14
CCc1c(C2(O)CCCCC2)[nH]c2cc(C(F)(F)F)ccc12
→ 11	/	1.9	-3	11	/	4.4	4	109*	/
CN(C)Cc1c(C(=O)N/N=C/CCc2ccccc2)nnn1-c1nonc1N
→ -5	9	0.5	4	3	-2.1	5.0	/	1	4
O=C(c1cnc2ccccn2c1=O)N1CCCc2ccccc21
→ -14	/	1.0	-5	-1	/	1.5	-2	-9	/
CC(=O)Oc1ccc(/C=C(\NC(=O)c2ccco2)C(=O)Nc2ccc(C(C)=O)cc2)cc1
→ -4	2	0.0	-13	-9	-2.6	3.9	17	-1	-3
COc1ccc(NC(=O)CSC2=NN3CCCC(=O)N=C3S2)c(OC)c1
→ -20	4	-0.2	-3	3	0.2	0.3	-12	/	1
NCC(c1ccccc1)c1c[nH]c2ccccc12 (configuration not stated)
→ -22	-4	1.1	-2	0	19	4.7	2	-10	-32
COC(=O)c1ccc(CNC(=O)C2CCC(=O)N(CCc3ccccc3)C2)cc1 (configuration not stated)
→ 3	6	3.0	-3	8	1.8	3.4	-9	-4	7
Cc1ccc(NC(=O)c2oc3ccccc3c2C)c([N+](=O)[O-])c1
→ 10	14	0.0	-3	0	1.1	-6.1	-2	1	11
Cc1ccccc1-n1ncc(C(C)NC(=O)c2ccco2)c1C (configuration not stated)
→ -2	11	0.6	4	-11	-4.7	-0.2	4	-2	-4
CCc1nc2ccc(C(=O)N3CCN(c4cccc(C(F)(F)F)c4)CC3)cc2nc1CC
→ 38	-15	0.7	13	1	3.4	-6.9	3	0	-4
Cc1ccc([N+](=O)[O-])c(OCCCN2CCCCCC2)c1
→ -7	8	-0.2	-21	-14	-1.1	-5.4	/	10	12
CCOc1ccc2nc(SCC(=O)NC(=O)NCc3ccco3)[nH]c2c1
→ 6	/	-0.5	0	0	/	-1.7	1	0	/
O=C(NCc1ccccc1)C(c1cccnc1)N(Cc1ccco1)C(=O)c1ccccn1 (configuration not stated)
→ 0	/	0.0	8	-1	/	1.8	-5	-3	/
CCC(C)NC(=O)CCn1c(=O)c2cccn2c2ccc(F)cc21 (configuration not stated)
→ -11	-9	0.9	0	-8	4.4	0.1	-4	1	-2
COc1ccc(C(CNC(=O)c2oc3ccccc3c2C)N2CCCC2)cc1 (configuration not stated)
→ /	-10	-0.8	/	-3	3.1	-0.8	-5	4	-10
COc1ccccc1N1CCN(/N=C/c2cccc(OC)c2OC)CC1
→ -6	-8	0.8	-15	0	-0.4	9.6	17	-2	-7
CCOC(=O)C1CCCN(C(=O)CN(c2ccc(OC)cc2)S(=O)(=O)c2c(C)noc2C)C1 (configuration not stated)
→ -4	4	0.3	-3	4	7.8	1.2	-12	-5	0
CCc1ccccc1N(CC(=O)N1CCN(c2ccccc2F)CC1)S(C)(=O)=O
→ -12	/	-0.2	-7	0	/	-1.9	-3	/	/
Cc1ccn(CCC(=O)N2c3ccccc3CC2C)n1 (configuration not stated)
→ -10	3	0.1	29	0	2.7	-2.7	-8	2	4
COc1ccc(-n2nc(C(=O)NCC(=O)N3CCN(C)CC3)c3ccccc3c2=O)cc1OC
→ -3	/	-0.7	7	6	/	-0.8	-5	6	/
Cn1c(=O)cc(OCC(=O)NCCCN2CCN(c3ccccc3F)CC2)c2ccccc21
→ 10	/	-1.2	1	-5	/	-2.4	2	5	/
NS(=O)(=O)c1ccc(S(=O)(=O)N(CCc2ccccc2)Cc2ccccn2)cc1
→ -2	-2	-0.4	1	-2	0.2	-3.7	1	/	2
Cc1cc(C(=O)NC(C)C2CC2)c(Cl)cc1Cl (configuration not stated)
→ -18	11	0.0	-1	6	1.7	3.8	-6	-3	11
CCc1nnc(NC(=O)c2ccc(-c3ccccc3F)o2)s1
→ -5	2	-1.8	-6	-1	-3.6	3.4	-3	0	8
O=C1c2cc(S(=O)(=O)N(CCO)CCO)ccc2-c2ccc(S(=O)(=O)N(CCO)CCO)cc21
→ -15	-4	0.9	-25	-1	-3.5	1.0	-6	5	4
N/C(=N\OC(=O)c1ccc2ccccc2c1)c1ccncc1
→ -2	-9	-3.7	15	-5	-2.7	6.3	/	-7	-8
COc1ccc(C(=O)COC(=O)C2CCCN2C(=O)C23CC4CC(CC(C4)C2)C3)cc1 (configuration not stated)
→ 11	5	0.3	/	-4	3.2	-3.5	-2	-6	4
COc1ccccc1OCCCOc1c(C)cc(C)cc1Br
→ 13	/	0.3	-2	-1	/	0.7	/	-3	/
Cc1ccc(OCC(=O)O)c(-n2nc3ccccc3n2)c1
→ -3	/	1.9	7	6	/	-1.6	-3	-24	/
Cc1c(-c2ccccc2)nc(N)c(C#N)c1-c1ccco1
→ 15	/	0.3	49	4	/	-2.3	-1	3	/
CCOc1ccc(NC(=S)N2CCC(NC(=O)c3ccco3)CC2)cc1
→ -10	-1	-0.4	8	-18	4.2	-0.8	-31	-2	0
CC12CCC(=O)N1C(C(=O)NNC(=O)c1ccccc1)CS2 (configuration not stated)
→ -1	15	0.1	5	-3	-3.7	-1.0	7	7	18
Cc1ccc(S(=O)(=O)Nc2ccc(Cl)cn2)cc1C
→ 3	-3	0.2	14	-6	-3.8	3.6	59	-4	9
Clc1ccccc1Cn1nnc2ccccc21
→ -10	0	1.1	-11	6	-2.9	-3.2	-2	-4	-3
Cc1ccc(-c2nnc3c4ccccc4c(C)nn23)cc1S(=O)(=O)N1CCN(CCO)CC1
→ 26	/	-0.5	-1	-5	/	-0.5	-5	/	/
Cc1onc(-c2ccccc2)c1C(=O)NCCCc1ccccc1
→ /	9	1.1	/	-12	-2.2	-0.9	-6	0	1
C[N+]1(CC(=O)NNc2c3ccccc3nc3ccccc23)CCOCC1
→ 37	4	0.4	-6	/	-8.4	-3.9	99*	41	-12
CNC(=O)c1ccc(NC(=O)/C=C/c2cccc(F)c2)cc1
→ -13	11	-0.3	-16	-2	4.7	-2.1	5	2	14
CN(C)/C(=N\O)c1c(Cl)cccc1Cl
→ -29	/	1.0	3	2	/	-2.0	-6	-6	/
O=C(CSc1ncnc2nc[nH]c12)N1CCN(c2ccccc2)CC1
→ -8	/	-0.1	-12	-1	/	-2.4	65	2	/
CCC1OC(c2ccc([N+](=O)[O-])cc2)=Nc2ccccc21 (configuration not stated)
→ 15	1	-1.7	-4	3	-1.3	-5.7	42	1	-3
CCCOn1c(OCC(C)C)nc2ccccc2c1=O
→ 14	/	0.4	5	11	/	-0.7	1	1	/
COc1ccccc1C(=O)Nc1cccc(NC(=O)c2ccccc2C)c1
→ -7	-27*	0.1	36	5	-7.1*	-0.8	11	4	-34*
CC1CCCCN1CCNC(=O)c1ccc2c(=O)n(CCc3ccccc3)c(=O)[nH]c2c1 (configuration not stated)
→ -5	/	0.8	5	7	/	4.0	4	-8	/
Oc1ccc2ccccc2c1CNc1ccccn1
→ -4	3	0.7	-7	7	18	0.4	19	-9	5
Cc1ccc2cc(CCNS(=O)(=O)c3ccc(Cl)cc3)c(=O)[nH]c2c1C
→ 4	-11	-0.3	-4	28	3.4	1.8	/	-11	-6
Clc1ccccc1Nc1nc(-c2cccnc2)cs1
→ 8	-37	-5.7	2	6	-1.6	-6.7	36	-5	-22
CC1(C)CC(C(CCN(Cc2ccccc2)C(=O)c2ccco2)c2ccc(F)cc2)CCO1 (configuration not stated)
→ 29	/	0.9	20	-3	/	1.2	/	-4	/
CCOC(=O)c1ccc(-n2c(=S)sc3c(=O)[nH]c(C)nc32)cc1
→ 15	/	0.2	32	7	/	-2.4	0	0	/
N#CCSc1nc2ccccc2c(=O)n1CC1CCCC1
→ -9	7	0.6	11	-17	-8.3	0.5	1	-3	6
CCCN1CCN(CC(=O)Nc2nc3ccccc3s2)CC1
→ 46	6	0.9	-1	-8	-1.3	1.4	-3	/	-1
Cc1ccc(N(CC(=O)NC2CCCCC2)C(=O)Cn2nnc(-c3ccc(C)o3)n2)cc1
→ 10	3	-1.1	1	-7	5.2	7.2	/	-4	-7
COc1ccc(-c2oc3ccccc3c(=O)c2OC(C)=O)cc1
→ 23	-31	-4.2	45	10	-2.9	1.9	/	3	-30
CCC(=O)N(CCc1ccccc1)Cc1cc2cc3c(cc2[nH]c1=O)OCO3
→ 17	/	0.7	-4	-10	/	1.5	-6	-4	/
O=C(NCc1ccco1)c1ccc(Cn2c(=O)c3sccc3n(Cc3cccc(F)c3)c2=O)cc1
→ -35	-6	0.5	2	-2	-2.7	3.1	-99	2	-9
CC(C)(C)OC(=O)NCCCCCNC(=O)c1[nH]cnc1C(=O)N[C@@H](Cc1ccccc1)C(=O)OC(C)(C)C
→ /	/	0.3	/	6	/	-5.2	0	5	/
Cc1ccc[n+](CC(=O)Nc2c(Cl)cc(Cl)cc2Cl)c1
→ -5	12	0.4	-1	-7	-2.0	-5.8	/	-5	1
C=C(C)Cc1c(C)c(C#N)c2nc3ccccc3n2c1N1CCCCC1
→ 31	/	-0.7	-2	-7	/	-2.3	-3	1	/
Cc1oc(-c2cc(F)cc(F)c2)nc1CN1CCN(C(=O)c2ccco2)CC1
→ -3	-6	-0.3	1	-1	-1.5	-2.6	-17	1	-9
c1ccc(-c2ccc3c(n2)CCCO3)cc1
→ -8	/	-4.0	1	3	/	0.3	-21	-7	/

Laid out differently: results already given
Cc1cc(C(=O)NC(C)C2CC2)c(Cl)cc1Cl (configuration not stated)
  T cruzi inh = -18; rRNA inh HTS OD600 = 11; Bfl-1 A1 inh = 0.0; Calb FLC = -1; Beta2AR agonist = 6; rRNA inh HTS RFP = 1.7; LANA-H2A inh = 3.8; ALR inh = -6; Beta apoptosis = -3; rRNA inh HTS = 11
CCc1nnc(NC(=O)c2ccc(-c3ccccc3F)o2)s1
  T cruzi inh = -5; rRNA inh HTS OD600 = 2; Bfl-1 A1 inh = -1.8; Calb FLC = -6; Beta2AR agonist = -1; rRNA inh HTS RFP = -3.6; LANA-H2A inh = 3.4; ALR inh = -3; Beta apoptosis = 0; rRNA inh HTS = 8
O=C1c2cc(S(=O)(=O)N(CCO)CCO)ccc2-c2ccc(S(=O)(=O)N(CCO)CCO)cc21
  T cruzi inh = -15; rRNA inh HTS OD600 = -4; Bfl-1 A1 inh = 0.9; Calb FLC = -25; Beta2AR agonist = -1; rRNA inh HTS RFP = -3.5; LANA-H2A inh = 1.0; ALR inh = -6; Beta apoptosis = 5; rRNA inh HTS = 4

In the list so far, these contain a cyano group:
The line under a structure holds: T cruzi inh	rRNA inh HTS OD600	Bfl-1 A1 inh	Calb FLC	Beta2AR agonist	rRNA inh HTS RFP	LANA-H2A inh	ALR inh	Beta apoptosis	rRNA inh HTS
Cc1c(-c2ccccc2)nc(N)c(C#N)c1-c1ccco1
→ 15	/	0.3	49	4	/	-2.3	-1	3	/
N#CCSc1nc2ccccc2c(=O)n1CC1CCCC1
→ -9	7	0.6	11	-17	-8.3	0.5	1	-3	6
C=C(C)Cc1c(C)c(C#N)c2nc3ccccc3n2c1N1CCCCC1
→ 31	/	-0.7	-2	-7	/	-2.3	-3	1	/

The list is partial. The share of hits here may be higher or lower than overall.
